Assay outcomes as filed in PubChem.
Mtb H37Rv: M. tuberculosis H37Rv growth inhibitors, H37Rv strain (AID 1626). M. tuberculosis H37Rv growth inhibition; higher % means a stronger effect. one-dose inhibition, % at 10 µM; IC50 in µM for titrated hits. 220,000 compounds, 0.95% hits;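 active = confirmed in a dose series; inconclusive = inhibition above 80% but not taken into the dose series; inactive = below 80% or under 30% at every dose of the series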;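 also: bacteria incubated seven days before Alamar blue readout; 0% = bacteria only wells and 100% = bacteria with antibiotic wells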
YopH PTP inh: YopH tyrosine phosphatase inhibitors, primary screen, biochemical, fluorescence Ex485/Em525; AID 898, 2007; 140,000 compounds, 0.16% hits; YopH tyrosine phosphatase [Yersinia enterocolitica]; inhibition, %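 (about 10 µM by stock and volumes)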;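 active = inhibition of 50% or more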;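 also: controls were vehicle for no effect and minimum signal wells for full effect; inactives centre near -20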
RecA intein inh: Mtb RecA intein splicing inhibitors, primary screen, biochemical, fluorescence, HTS; cell-free RecA intein splicing; inhibition, %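 (about 9 µM by stock and volumes)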; 290,000 compounds, 0.75% hits; AID 2221, 2009; in the data active = inhibition above about 30%; inconclusive = no clear call, values can overlap the other calls;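 also: 0% = vehicle wells and 100% = reference inhibitor control wells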
Target sequence (P9WHJ3 whole entry, looked up): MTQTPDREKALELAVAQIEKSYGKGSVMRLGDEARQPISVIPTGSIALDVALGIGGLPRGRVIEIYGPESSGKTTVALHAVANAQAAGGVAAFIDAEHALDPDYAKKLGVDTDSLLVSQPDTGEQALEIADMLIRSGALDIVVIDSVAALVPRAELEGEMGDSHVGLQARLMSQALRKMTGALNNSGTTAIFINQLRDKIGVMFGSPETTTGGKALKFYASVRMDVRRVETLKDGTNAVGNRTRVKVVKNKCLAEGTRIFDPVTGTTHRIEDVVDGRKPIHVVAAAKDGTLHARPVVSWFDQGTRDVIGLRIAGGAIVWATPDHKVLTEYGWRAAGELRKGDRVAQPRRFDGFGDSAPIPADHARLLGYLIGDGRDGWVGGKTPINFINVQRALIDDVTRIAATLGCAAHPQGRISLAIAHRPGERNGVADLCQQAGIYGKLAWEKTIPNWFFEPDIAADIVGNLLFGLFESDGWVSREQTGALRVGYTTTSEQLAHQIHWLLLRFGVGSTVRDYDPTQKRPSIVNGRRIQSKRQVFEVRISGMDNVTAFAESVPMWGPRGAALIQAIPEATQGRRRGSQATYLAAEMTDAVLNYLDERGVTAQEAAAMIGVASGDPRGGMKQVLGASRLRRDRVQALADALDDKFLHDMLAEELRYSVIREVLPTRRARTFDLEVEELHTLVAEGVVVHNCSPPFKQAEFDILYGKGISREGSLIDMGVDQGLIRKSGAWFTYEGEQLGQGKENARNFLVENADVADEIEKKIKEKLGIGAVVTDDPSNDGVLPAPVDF
Mtb betalactam: beta-lactam sensitization of Mtb H37Rv, H37Rv. M. tuberculosis H37Rv growth with meropenem, percent inhibition; hits of this screen are not shown here. inhibition, % at 25 µM. 330,000 compounds, 0.27% hits. AID 434955, 2010;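 active = about 74% or more and at least 40 points above the plate without the antibiotic, then above 30% in a dose series; inconclusive = first-round hits that could not be retested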;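 also: growth measured after seven days incubation then overnight dye step; 0% = bacteria only wells and 100% = bacteria with antibiotic; twin plates without the antibiotic show which effects depend on it; some results filed as inactive read as strong as hits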
Arbovirus anti: antivirals against arbovirus infection, primary screen, cell-based, full library, 10K replicate subset | arbovirus infection cell-based antiviral screen | inhibition, % at 10 µM | 200,000 compounds, 0.37% hits | AID 1251, 2008;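 active = inhibition from about 30%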;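 also: bluetongue infection of BSR cells; cell survival read as ATP light after 72 h; 0% = infected wells without compound and 100% = uninfected wells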
Arbovirus anti repeat: second read-out of Arbovirus anti, no call of its own (marks repeat the call); inhibition, %; measured here: 10K subset replicate screen; many hits read low in the repeat;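 first of two repeat runs on a subset; 0% = infected and 100% = uninfected wells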
* hit, by the source's call; ? = inconclusive; · = not tested or not shown. These rows are one share of the data; the hit share may differ from the screen's.

SMILES	Mtb H37Rv	YopH PTP inh	RecA intein inh	Mtb betalactam	Arbovirus anti	others
COc1ccc(CC(=O)Nc2ccc3c(c2)CCC3)cc1	9.7%	-7.6	-0.6	0.9	12.2
Nc1nc(NCc2ccccc2)nc(NCc2ccccc2)c1[N+](=O)[O-]	6.2%	-17.3	-2.5	1.5	-10.8
O=C(Nc1ccc(S(=O)(=O)N2CCCC2)cc1)C1CCCN1C(=O)c1cccs1 (centres undefined)	-5.3%	·	-0.6	-1.1	9.7
O=C(CCC1CCCN(C(=O)Cc2ccc(F)cc2)C1)N1CCN(c2ccccn2)CC1 (centres undefined)	-6.2%	·	-1.7	-4.6	-1.2
Cc1c(N=Cc2c(O)n(Cc3ccc(F)cc3)c(=O)[nH]c2=O)c(=O)n(-c2ccccc2)n1C	-7.1%	-1.3	-0.5	6.2	2.4
O=C1CCC(=O)N1c1ccc(NC2CCN(Cc3ccccc3)CC2)c([N+](=O)[O-])c1	10.5%	·	0.7	-8.1	9.3
Cc1noc(C)c1COC(=O)c1cc2ccccc2cc1O	-1.0%	-13.0	3.7	-4.0	-5.3
O=C(O)c1ccc(CN2C(=O)c3ccc(Oc4ccc([N+](=O)[O-])cc4)cc3C2=O)cc1	·	·	0.1	-11.8	·
COc1cc2c(cc1O)CCN(C(=O)c1ccco1)C2C (centres undefined)	-3.3%	-6.9	-2.6	-3.3	2.4
COc1cc(C(=O)NCC(c2ccco2)N2CCOCC2)cc(OC)c1OC (centres undefined)	·	·	-2.9	2.4	·
CC(=O)Nc1ccc2c(c1)nc1n2CCN(C2CCCCC2)C1	-6.6%	·	·	·	1.0
COC(=O)C1=C(c2cccc(OC)c2OC)C[C@@H]2CC[C@H]1N2C(=O)NCc1ccc(C(F)(F)F)cc1	-2.1%	·	5.4	0.5	·
Cc1c(S(=O)(=O)Nc2cccc3ccccc23)c(=O)n(C)c(=O)n1C	·	·	-0.3	-4.3	·
O=C1c2ccccc2C(=O)C12OC2c1ccc(Cl)cc1Cl (centres undefined)	78.9%	-4.5	·	18.2	-42.9
CCc1ccccc1NC(=S)N(CCN(C)C)C(C)c1ccco1 (centres undefined)	-4.1%	·	-2.0	-4.9	6.5
CCCn1cc([C@@H]2C[C@H]3CN(Cc4cccc(Cl)c4)C(=O)[C@]34CCCN24)c(C)n1	-2.6%	·	2.4	-3.0	·
COc1ccc(N2CCN(C(=O)c3ccc4[nH]c(C)c(C)c4c3)CC2)cc1	·	·	-1.4	74.7	·
Cc1occc1C(=O)NC(C)C1CCCO1 (centres undefined)	0.7%	-27.1	0.2	-1.4	4.2
COC(=O)CSc1[nH]c(=O)cc(C)c1C#N	-7.4%	-32.9	-1.1	0.9	-0.4
Cc1cccc(N2CCN(C(=O)Cn3sc4nc(C)cc(C)c4c3=O)CC2C)c1 (centres undefined)	?	-43.2	-2.6	95.2	-39.3
Cc1cc(C(F)(F)F)nc(CCNC(=O)C2CCC(=O)N(Cc3cccc(F)c3)C2)n1 (centres undefined)	·	·	-3.2	5.5	·
CCCCCC(=O)NN=C1CCN(Cc2ccccc2)CC1	3.1%	-20.6	-1.1	3.6	2.9
O=C1CN=C(c2ccccc2)c2cc(Br)ccc2N1Cc1cc(=O)n2ccccc2n1	-3.2%	-28.4	-0.9	0.4	-4.1
COc1ccccc1C1CC(=O)NC(SCC(=O)Nc2ccccc2)=C1C#N (centres undefined)	13.8%	-21.4	3.2	-5.1	-1.7	Arbovirus anti repeat=-11.0
COc1cc(CC(=O)OCc2ccccc2F)cc(OC)c1OC	·	·	-0.1	-6.2	·

A draw from above in order of count of non-hydrogen atoms, smallest number first:
SMILES	Mtb H37Rv	YopH PTP inh	RecA intein inh	Mtb betalactam	Arbovirus anti	others
COc1cc2c(cc1O)CCN(C(=O)c1ccco1)C2C (centres undefined)	-3.3%	-6.9	-2.6	-3.3	2.4
Cc1noc(C)c1COC(=O)c1cc2ccccc2cc1O	-1.0%	-13.0	3.7	-4.0	-5.3
CCc1ccccc1NC(=S)N(CCN(C)C)C(C)c1ccco1 (centres undefined)	-4.1%	·	-2.0	-4.9	6.5
Cc1c(N=Cc2c(O)n(Cc3ccc(F)cc3)c(=O)[nH]c2=O)c(=O)n(-c2ccccc2)n1C	-7.1%	-1.3	-0.5	6.2	2.4

Molecules from the list above that contain a cyano group:
SMILES	Mtb H37Rv	YopH PTP inh	RecA intein inh	Mtb betalactam	Arbovirus anti	others
COC(=O)CSc1[nH]c(=O)cc(C)c1C#N	-7.4%	-32.9	-1.1	0.9	-0.4
COc1ccccc1C1CC(=O)NC(SCC(=O)Nc2ccccc2)=C1C#N (centres undefined)	13.8%	-21.4	3.2	-5.1	-1.7	Arbovirus anti repeat=-11.0

Molecules shown so far with a Cl atom (2):
SMILES	Mtb H37Rv	YopH PTP inh	RecA intein inh	Mtb betalactam	Arbovirus anti	others
O=C1c2ccccc2C(=O)C12OC2c1ccc(Cl)cc1Cl (centres undefined)	78.9%	-4.5	·	18.2	-42.9
CCCn1cc([C@@H]2C[C@H]3CN(Cc4cccc(Cl)c4)C(=O)[C@]34CCCN24)c(C)n1	-2.6%	·	2.4	-3.0	·

The listing picks up, repeating the two entries before the break.
SMILES	Mtb H37Rv	YopH PTP inh	RecA intein inh	Mtb betalactam	Arbovirus anti	others
COc1ccccc1C1CC(=O)NC(SCC(=O)Nc2ccccc2)=C1C#N (centres undefined)	13.8%	-21.4	3.2	-5.1	-1.7	Arbovirus anti repeat=-11.0
COc1cc(CC(=O)OCc2ccccc2F)cc(OC)c1OC	·	·	-0.1	-6.2	·
COc1cc(OC)c(OC)cc1CNc1cc(C)ccc1OC	-1.3%	-49.9	0.3	2.2	-4.5
O=C(CSc1nnc(-c2cccs2)o1)c1cccs1	11.9%	-47.0	-0.3	-4.2	-5.1
Cn1cc(S(=O)(=O)N2CCc3ccccc32)cc1C(=O)NC1CCCCC1	·	·	-2.3	-0.2	·
Cc1ccc(NC(=O)CCNS(=O)(=O)c2ccc3c(c2)CCC(=O)N3)cc1F	·	·	-0.1	-6.7	·
CCC(C)NS(=O)(=O)c1ccc(N)cc1 (centres undefined)	-0.2%	·	-0.1	2.3	-3.0
COc1ccc(OC)c(NC(=O)CSc2nc(N3CCOCC3)nc(N3CCOCC3)n2)c1	·	·	1.0	?	·
Cc1cc(NC(=O)c2ccccc2)ncc1NC(=O)c1cccs1	0.6%	·	1.4	-0.5	-10.1
CC1(C)CC(C(N)=S)CCO1 (centres undefined)	2.1%	·	-6.2	-6.6	·
O=C(O)CSc1nnc(-c2ccccc2Br)n1-c1cccc(C(F)(F)F)c1	4.3%	·	5.6	13.7	3.2
Cc1cccc2cc(CN(CC3CCCO3)C(=O)c3cccs3)c(=O)[nH]c12 (centres undefined)	·	·	0.5	3.4	·
COc1ccc(C(=S)N2CCNCC2)cc1	-5.1%	-22.2	-2.6	2.8	5.0
CC(=O)c1ccc(NC(=S)NCc2cccnc2)cc1	-4.0%	·	3.4	1.6	1.4
O=C(O)Cn1c2ccccc2c2n[nH]c(=S)nc21	·	·	2.9	-6.9	·
Cc1cc(S(=O)(=O)NC(C)C)ccc1OCC(=O)NCc1ccccc1	-8.1%	·	-0.2	-3.7	5.2
COc1ccc(C(=O)NCc2cc(C(C)C)no2)cc1OC1CCN(C(C)C)CC1	·	·	-4.0	1.1	·
Cc1ccc(S(=O)(=O)N(C)c2cc(S(N)(=O)=O)c(C)cc2C)cc1	9.9%	·	-2.4	-3.0	0.4
C(=N\N(c1ccccc1)c1ccccc1)/c1ccc(N2CCOCC2)s1	?	18.9	2.9	80.3	2.3
CC1CCc2cc(F)cc3c(=O)c(C(=O)O)cn1c23 (centres undefined)	14.4%	-29.5	2.2	31.9	5.8
CC1(C)C(=O)Nc2ccccc2N1C(=O)Cn1ncc(Cl)c(Cl)c1=O	-8.6%	·	20.1	25.5	·
C[C@@]12N[C@@H](Cc3ccccc31)c1ccccc12	-5.0%	·	1.8	1.7	·
CSc1n[nH]c(NC(C)=O)n1	3.6%	2.3	0.3	-1.7	15.0
O=[N+]([O-])c1cc(S(=O)(=O)NCCN2CCOCC2)ccc1Sc1nnnn1-c1ccccc1	10.1%	-19.2	25.4	15.3	-41.3
Cc1ccc(S(=O)(=O)c2n[nH]n3c2nc(=O)c2ccccc23)cc1	-9.5%	-34.8	-2.3	5.7	2.2
Cc1[nH]nc2c1C1(CCC(c3ccccc3)CC1)C(C#N)=C(N)O2 (centres undefined)	-1.2%	-10.2	77.0*	-0.5	-1.6
O=C(O)c1ccc2c(c1)C(=O)N(Cc1ccccc1)C2=O	-9.5%	-31.4	0.0	-19.9	3.8
Additional results
SMILES	Mtb H37Rv	YopH PTP inh	RecA intein inh	Mtb betalactam	Arbovirus anti	others
C=CCNC(=O)c1ccccc1NC(=O)c1ccccc1	18.6%	-0.3	0.7	1.8	-0.5
CCCN1CCN(C(=O)Nc2ccc(C(=O)OCC)cc2)CC1	4.0%	2.6	-6.5	-0.5	-1.1
Cc1ccc2nc3sc(-c4nnc(-c5ccccc5[N+](=O)[O-])o4)c(N)c3cc2c1	·	-8.5	·	·	0.7
CS(=O)(=O)Cc1cc(Sc2ccccc2)nc(-c2ccncc2)n1	-4.9%	·	2.0	-2.3	-3.0
Cc1nnc(NC(=O)CSc2ccc3nnc(-c4cccnc4)n3n2)s1	-1.7%	·	-2.2	-3.5	3.0
COc1cc2c(cc1NC(=O)C(C)NCc1ccccc1)oc1ccccc12 (centres undefined)	56.9%	-9.6	4.4	61.1	1.8
CC(C)(CO)CNC(=O)CCc1nnc(C2(c3ccc(Cl)cc3)CCC2)o1	-7.4%	·	-1.3	-1.9	2.0
O=C(CSc1ccccc1)N1CCN(S(=O)(=O)c2cccs2)CC1	·	·	-1.9	0.1	·
Cn1c(Cc2ccccc2)nnc1SCc1cc(=O)n2ccsc2n1	-0.8%	·	0.1	-3.8	7.0
Cc1ccc(S(=O)(=O)N2CCN(C(=O)C3=COCCO3)CC2)cc1C	-0.5%	-22.2	-4.3	-2.8	9.7
CCn1cc(S(=O)(=O)N2CCN(c3ccc(Cl)cc3)CC2)cn1	·	·	-7.6	-1.2	·
Cc1cc(=O)[nH]c(SCC(=O)NCC2CCCCC2)c1C#N	1.3%	·	-2.5	-9.9	4.5
Cc1nc2cc(NC(=O)N3c4ccccc4CC3C)ccc2o1 (centres undefined)	-0.8%	-20.3	5.4	8.9	-7.6
Cc1ccc(OCc2cc(C(=O)NCC3COCCO3)no2)cc1C (centres undefined)	·	·	4.6	-4.5	·
COc1cccc(NC(=O)COC(=O)c2cccnc2)c1	-10.8%	-18.9	-0.8	3.2	4.9
COC(=O)N[C@H](CC(C)=O)c1ccccc1	-8.4%	-33.8	-1.9	-6.2	-2.3
CC1=NOC(=O)/C1=C\c1ccc(-c2ccc(Cl)c(C(=O)O)c2)o1	-5.5%	·	1.0	·	25.8
COn1c(SC2CCCCC2)nc2ccccc2c1=O	8.8%	-2.2	12.3	52.7	13.6
COCCn1c(SCC(=O)NCc2ccccc2)nc2ccccc21	·	·	-0.2	0.6	·
CCOc1ccc(CCNC(=O)COC(=O)/C=C/c2ccc(OC(F)F)c(OC)c2)cc1OCC	·	·	-2.3	-4.1	·
COc1cccc(OCC(=O)N(C)Cc2nc(-c3ccccc3)no2)c1	·	·	10.0	1.5	·
O=C(C1=C(O)C(=O)N(c2ccccc2)C1c1ccc([N+](=O)[O-])cc1)c1cccs1 (centres undefined)	-3.1%	·	0.5	-16.8	0.4
CN1CCN(C(=O)Nc2cccc(-c3ccccc3)c2)CC1	-10.2%	·	-1.5	-0.1	·
